Screening results as filed in PubChem.
RE007 growth inh: less growth of the S. pombe RE007 Vpr strain. S. pombe RE007 Vpr strain, BacTiter-Glo ATP luminescence, 24 h; control for the full effect not named in the record. Potency, µM (titrated, usually from 92.2 µM), without a hit: at the highest dose activity change, negative = less growth. 0.21% of 360,000 active. AID 651644; active = well fitted falling curve with a large enough effect; inconclusive = small, poorly fitted or top-dose-only effect; inactive = no such curve, though single readings can be large or run the other way;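 further: nearly all actives have a fitted effect of over 50% in size; the assay follows cell death caused by Vpr and the record does not say whether a fall means rescue or toxicity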
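Fission yeast strain RE007, carrying one chromosomally integrated HIV-1 vpr copy, was seeded at OD 0.01 in PMG+AL medium with 23 nL pinned compound. After 24 h at 30 °C and 99% humidity, viability was read by BacTiter-Glo luminescence.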
2A StopGo: lowers the luciferase signal of an FMDV 2A StopGo reporter; Potency, µM (doses to about 57.9 µM), for the others: at the top dose signal change, negative = less light; 1.2% of 410,000 active; AID 1159524; human cells with a luciferase reporter of 2A StopGo recoding; control for the full effect not named in the record; active = well fitted falling curve with a large enough effect; inconclusive = small, poorly fitted or top-dose-only effect; inactive = no such curve, though single readings can be large or run the other way; tested in HEK293T cells; further: nearly all actives have a fitted effect of over 45% in size; luciferase light after 4 h
The depositor's hits bear a star; ? = inconclusive; [ ] = another dose, or the depositor's remark. On the % scale 0 is the no-effect control and ±100 the full control effect; potency means the concentration at half of the fitted maximal effect. These rows are one share of the data; count on the stated rates, not on these rows.

SMILES | RE007 growth inh | 2A StopGo
O=S1(=O)CC(N2CCCCC2)CN1Cc1cn(Cc2ccccc2)nn1 (configuration not stated) | 1% | -8%
COc1ccccc1CNc1nc(NC(C)C)nc2ccsc12 | -23%[18.4 µM] | ?
Cc1cn([C@H]2C[C@H](O)[C@@H](CNC=O)O2)c(=O)[nH]c1=O | -8% | -6%
CC1(C(=O)NS(=O)(=O)c2ccccc2Cl)CCN1C(=O)C1(c2ccc(Cl)cc2)CCC1 (configuration not stated) | 10% | 14%
N#Cc1ccc(-c2nc3ccc(Br)cn3c2Cc2ccsc2)cc1 | -14% | 26%
COCCCNC(CC(=O)Nc1cc(C)cc(C)c1)C(=O)O (configuration not stated) | 0% | -5%
COc1ccc(C(C)=O)cc1CC1(C)C(=O)Nc2ccc(-c3ccccc3OC)cc21 (configuration not stated) | 4% | -27%
C/C=C1/C[N+]2(C)CCC34C(=C(C=O)[C@H]1C[C@@H]32)Nc1ccccc14 (some centres not stated) | -5%[18.4 µM] | -22%
O=C(CCCN1CCN(c2ccccc2)CC1)c1ccc(F)cc1 | 5% | -9%
COc1ccc(CN2Cc3cnnn3-c3ccccc3C2C#N)cc1 (configuration not stated) | -9% | 25µM*
CN(C)c1ccc(CNC(=O)C2(C)Cc3c(-c4ccccc4)ccnc3O2)cc1 (configuration not stated) | 7% | -8%
Nc1ccc(Oc2ccc(N)c([N+](=O)[O-])c2)cc1[N+](=O)[O-] | 22% | 4%
CC(=O)Nc1ccc(-c2ccnc3c2CC(C)(C(=O)NCc2ccc(F)c(F)c2)O3)cc1 (configuration not stated) | 9%[18.4 µM] | -14%
C[C@H]1CN([C@@H](C)CO)C(=O)c2cc(Br)cnc2O[C@H]1CN(C)S(=O)(=O)c1cccs1 | ? | 42%[activator]
CCCCNC(=O)C1(C)CCCCN1C(=O)c1csnn1 (configuration not stated) | 4% | -10%
COc1cccc(NC(=O)C2(C)CCN2C(C)C)c1OC (configuration not stated) | 9%[18.4 µM] | -20%
O[C@H]1C[C@H](c2ccccc2)N(Cc2cccs2)C[C@@H]1n1cc(-c2ccc(F)cc2)nn1 | -6% | 0%
CSc1ccc(NC(=O)C2(C)CCN2C(=O)c2ccccc2CCc2ccccc2)cc1 (configuration not stated) | 0%[18.4 µM] | -6%
O=C(C[C@H]1C[C@@H]2c3cc(NC(=O)c4ccc5c(c4)OCO5)ccc3O[C@@H]2[C@H](CO)O1)NCc1cc(F)ccc1F | 4% | -18%
O=C(NCc1ccccc1)c1onc(CSc2ccc(F)c(F)c2)c1C(=O)NCc1ccccc1 | 7% | -18%

6 entries from above in another layout:
Order of values: RE007 growth inh	2A StopGo
- C/C=C1/C[N+]2(C)CCC34C(=C(C=O)[C@H]1C[C@@H]32)Nc1ccccc14 (some centres not stated)
  -5%[18.4 µM]	-22%
- O=C(CCCN1CCN(c2ccccc2)CC1)c1ccc(F)cc1
  5%	-9%
- COc1ccc(CN2Cc3cnnn3-c3ccccc3C2C#N)cc1 (configuration not stated)
  -9%	25µM*
- CN(C)c1ccc(CNC(=O)C2(C)Cc3c(-c4ccccc4)ccnc3O2)cc1 (configuration not stated)
  7%	-8%
- Nc1ccc(Oc2ccc(N)c([N+](=O)[O-])c2)cc1[N+](=O)[O-]
  22%	4%
- CC(=O)Nc1ccc(-c2ccnc3c2CC(C)(C(=O)NCc2ccc(F)c(F)c2)O3)cc1 (configuration not stated)
  9%[18.4 µM]	-14%

(cont.)
SMILES | RE007 growth inh | 2A StopGo
O=C(NCc1cccnc1)c1cc(C(=O)NCc2cccnc2)cc([N+](=O)[O-])c1 | -4% | -2%
CC1(C(=O)NCC2CCCCC2)CCN1CCc1ccccc1 (configuration not stated) | -2% | -25%
COc1ccc(NC(=O)c2cnc3ccccn3c2=O)c(OC)c1 | -4% | 35%[activator]
COc1cc(CNC(=O)c2cnccn2)cc(OC)c1 | 7% | 11%
O=C(NCc1ccccc1)c1nc(-c2c(F)cccc2F)oc1-c1ccccc1 | -21% | 22%
CCN(CC)C(=O)C1CCCN(Cc2cccc(Cl)c2)C1 (configuration not stated) | -17% | -17%
O=C(c1cccc(Cl)c1)N1CCN(c2ccc3c(c2)C2CC3CCN2C(=O)OCc2ccccc2)CC1 (configuration not stated) | 0% | -19%
O=CNc1cc(-c2cccc(F)c2)cn2c(-c3ccc(F)c(Cl)c3)cnc12 | -14%[18.4 µM] | -15%
CC(C)[C@H](NC(=O)OC(C)(C)C)c1cc(C(=O)N2CCOCC2)c(N)s1 | -9% | -14%
COC(=O)c1ccc2nc(-c3ccccc3)c(Cc3ccccc3OC)n2c1 | -6% | 7%
O=C(Nc1nnc(-c2cccs2)o1)c1cccc(F)c1 | -6% | 38%[activator]
CC1(C(=O)NCC2CC2)CCN1C(=O)C1(c2ccccc2)CC1 (configuration not stated) | 1%[18.4 µM] | -4%
CCc1nc2c(OCc3ccc(F)cc3)cccn2c1N(C)C(=O)c1ccncc1 | 5% | -14%
CCOc1ccc(CN(C)C(=O)c2cccc(S(=O)(=O)Nc3ccccc3OC)c2)cc1OC | 5% | -23%
CN1CCN(C(=O)c2ccc(NC(=O)c3ccc(Br)o3)cc2)CC1 | -1% | -18%
CC(C(=O)O)(C1CCCCC1)C1(O)CCCCC1 (configuration not stated) | 19% | 1%
CCCCCCN1C[C@H](O)[C@@H](n2cc(COC(=O)c3ccccc3)nn2)C[C@@H]1c1ccc(C)cc1 | -2% | -24%
CC(C)Oc1ccc(C(=O)N2CCC(CCC(=O)NC3CC3)CC2)cc1 | 8% | 8%
CSCCC(NS(=O)(=O)Cc1ccccc1)C(=O)NNc1ccccc1 (configuration not stated) | 2%[18.4 µM] | -10%
CC(C)(C)c1csc(NC(=O)CCS(=O)(=O)c2ccc(F)cc2)n1 | -6% | ?
O=C(CCc1nc2ccccc2c(=O)[nH]1)Nc1ccccc1N1CCCCC1 | -2% | ?
COc1cccc(C(NC(C)=O)c2nc(-c3ccccc3)cs2)c1 (configuration not stated) | 2%[18.4 µM] | -4%
CC(=O)c1cccc(NC(=O)c2cccc3c(-c4cnn(C)c4)coc23)c1 | 10% | -11%
OC[C@H]1O[C@@H](c2nc3ccc(-c4nc(-c5ccc(Br)cc5)no4)cc3[nH]2)C[C@@H]1O | -4% | 41%[activator]
CC(C)(C)C1CCN2CCCC(c3ccccc3)(C1)C2=O (configuration not stated) | 29% | -10%
Cc1cscc(C)c1=S | -5% | -1%
CN(CC(=O)Nc1ccc(Cl)c(C(F)(F)F)c1)C(=O)c1ccccc1SCC(=O)N1CCCC1 | 0% | ?
O=C(O)C1=C[C@H](c2ccc3c(c2)OCO3)C[C@H](OCc2ccc(CO)cc2)O1 | 57% | -9%
CCCCCCN1C[C@@H](O)[C@H](n2cc(-c3ccc(F)cc3)nn2)C[C@@H]1c1ccc(C)cc1 | -11% | ?
COc1ccc(NC(=O)C(c2ccncc2)n2c(=O)c(-c3cc4ccccc4[nH]3)nc3ccccc32)cc1 (configuration not stated) | -3% | 19%
CCN(CC)C(=O)C1=C(C)N(CCCN2CCCC2=O)C(=O)C(CC(=O)NCc2ccco2)C1 (configuration not stated) | -13% | -20%
NC(=O)c1c(N)[nH]c(C(=O)c2ccccc2)c1-c1ccccc1Br | -9% | -18%
COc1ccccc1CNc1nc(NCc2ccccc2OC)c2sccc2n1 | 2% | 22µM*
O=C1O[C@@H](c2ccccc2)C[C@@H](O)[C@H](O)CCc2ccccc21 | 3% | -14%
O=S1(=O)CC(N2CCCCC2)CN1Cc1cn(Cc2ccc(C(F)(F)F)cc2)nn1 (configuration not stated) | -5% | -24%
CCC1(c2ccc(F)cc2)NC(=O)N(CC(=O)Nc2cccc(S(=O)(=O)N3CCOCC3)c2)C1=O (configuration not stated) | 8% | -18%
Cc1cn([C@H]2C[C@H](O)[C@@H](CNCc3ccc(N4CCN(C)CC4)cc3F)O2)c(=O)[nH]c1=O | ? | 8%
CCCNC(=O)c1cc(C2CCCCN2C(=O)c2cc(OC)c(C)c(OC)c2)on1 (configuration not stated) | -1% | -18%
CCc1nc2c(OCC(=O)c3ccc(Cl)cc3Cl)cccn2c1N(C)C(=O)COc1ccccc1 | -20% | -13%
COc1ccc(Cl)cc1-c1cc(C(=O)Nc2ccc(F)cc2)[nH]n1 | 9% | -22%

Three structures from above, sorted by length of the SMILES, ascending:
SMILES | RE007 growth inh | 2A StopGo
CC(C)(C)C1CCN2CCCC(c3ccccc3)(C1)C2=O (configuration not stated) | 29% | -10%
O=C(O)C1=C[C@H](c2ccc3c(c2)OCO3)C[C@H](OCc2ccc(CO)cc2)O1 | 57% | -9%
CCCCCCN1C[C@@H](O)[C@H](n2cc(-c3ccc(F)cc3)nn2)C[C@@H]1c1ccc(C)cc1 | -11% | ?

(listing goes on)
SMILES | RE007 growth inh | 2A StopGo
CC1(C(=O)Nc2cccnc2)Cc2c(-c3cccc(C(F)(F)F)c3)ccnc2O1 (configuration not stated) | -11% | -7%
CCN1C[C@@H]2[C@@H]3C(=O)N(Cc4ccccc4)C(=O)[C@@H]3[C@](Cc3ccccc3)(C1=O)N2C(=O)c1ccc(Cl)cc1 | -17% | 58%[activator]
C#CCOCCOCCOCCNc1nc(N2CCN(C(=O)Cn3cc(CCCN=C(N)N)nn3)CC2)nc(N2CCN(C(=O)Cn3cc(CC(C)O)nn3)CC2)n1 (configuration not stated) | 4% | -9%
O=C(CSc1nnc(CNC(=O)c2c(F)cccc2F)o1)c1ccc(Cl)cc1 | 8% | -6%
Cn1cnc(S(=O)(=O)N2CCCCC2c2cc(C(=O)Nc3ccc(F)c(Cl)c3)no2)c1 (configuration not stated) | 4% | 37%[activator]
CC[C@H]1C2C[C@H]3[C@@H]4N(C)c5ccccc5C45C[C@H](C2[C@H]5O)N3[C@@H]1O (some centres not stated) | -7% | -21%
O=C1C[C@@H]2c3c(cccc3CN1Cc1ccccc1Cl)C[C@@H](O)[C@H]2O | 2% | -9%
O=C(Nc1cccc(Cl)c1)c1nc[nH]c1C(=O)Nc1ccccc1F | 8% | -24%
CCCCc1ccc(S(=O)(=O)NC(=O)C2(C)CCN2C(=O)c2ccccc2)cc1 (configuration not stated) | 3% | 5%
Cc1ccc(NCc2cccc(B(O)O)c2)cc1 | -2% | 20%
O=S1(=O)CCN(CCCc2ccccc2)CC1 | -1% | -6%
COCCN1C(=O)c2ccccc2C1c1nnnn1-c1ccc2c(c1)OCCO2 (configuration not stated) | -1% | -24%
COc1cccc(CN2CCC2(C)C(=O)Nc2ccc(C)c(O)c2)c1F (configuration not stated) | -11%[18.4 µM] | ?
CC(C)(C)[C@H]1COC(=O)CCCC/C=C\C[C@H](CC(=O)N(CCO)Cc2ccccc2)C(=O)N1 | 0% | -20%
CC(CCN1CCC(CN2C(=O)C(=O)NC[C@@H]2Cc2ccccc2)CC1)c1ccccc1 (some centres not stated) | -11% | -26%
CC(=O)Nc1ccc(S(=O)(=O)NN=c2sc3ccccc3n2C)cc1N | -2% | -15%
Cc1cn(C2OC(CC(=O)Oc3ccccc3)C(O)C2O)c(=O)[nH]c1=O (configuration not stated) | 3% | -19%
O=C(CSc1nnc(-c2ccccc2F)n1C1CC1)N1CCCC1 | 12% | -3%
C[C@H]1C=C(C(=O)NCc2nc3ccccc3[nH]2)O[C@@H](OCCCCO)C1 | 14% | 0%
CCc1nc2c(OCC(=O)C(C)(C)C)cccn2c1N(C)C(=O)C(C)C | 0% | -1%
O=c1[nH][nH]c2c1C(c1ccc(F)cc1)OC(CCc1ccccc1)C2 (configuration not stated) | 8% | -14%
CCCc1c(-c2ccc(F)cc2F)ncn1Cc1cccc(-c2ccccc2)c1 | -2% | ?
C[C@@H]1CCCCO[C@H](CN(C)C(=O)Nc2ccc(C(F)(F)F)cc2)[C@@H](C)CN([C@H](C)CO)C(=O)c2cc(NC(=O)Nc3ccc4c(c3)OCO4)ccc2O1 | -9% | ?
Cn1c(=O)c2cc(NC(=O)Cc3ccccc3F)ccc2n1C/C=C/c1ccccc1 | 7%[18.4 µM] | 29%
CC1(C)C[C@H](O)[C@@]23C[C@@H](OC2=O)[C@]2(C)C(=CCC4[C@@]5(C)CC[C@H](O)C(C)(C)C5CC[C@]42C)[C@@H]3C1 (some centres not stated) | 3% | ?
CC1=C(C(=O)N2CCCCCC2)CC(CC(=O)NCc2ccco2)C(=O)N1Cc1ccccc1 (configuration not stated) | -2% | 0%
O=C(NC1CCCCC1)C1c2ccccc2OCC(=O)N1Cc1ccco1 (configuration not stated) | 6% | -24%
CNc1cncc(-c2cccnc2)n1 | -12%[18.4 µM] | -8%
O=S1(=O)CC(N2CCCC2)CN1Cc1ccccc1 (configuration not stated) | -4% | -12%
CCN(C(=O)COC(=O)c1ccccc1NCc1ccco1)c1c(N)n(Cc2ccccc2)c(=O)[nH]c1=O | 5% | -24%
CC(=O)N1Cc2cc(C(=O)NCC(F)(F)F)nc(-c3cccc(-c4cccnc4)c3)c2[C@@H]1CCO | 0% | -14%
CC(C)C[C@H]1CN(CCCC[C@@H]2CNC(=O)C(=O)N2Cc2ccccc2)C(=O)C(=O)N1CCc1ccc(O)cc1 | 11% | -15%
CC(=O)N1CCN(S(=O)(=O)c2cccc(C(=O)NNC(=O)c3ccc(Br)cc3)c2)CC1 | 17% | 4%
C[C@H](O)[C@@H]1C(=O)N2CCc3c([nH]c4ccccc34)[C@@H]2C[C@@H]1N(C)C(=O)Nc1ccccc1 | 9% | -9%
COc1ccc(C(=O)CSc2nc3nn(-c4ccccc4)c(=O)c-3c3n2CCCCC3)c(OC)c1 | -2% | ?
